Env fusion inh = inhibitors of HIV-1 Env-driven cell-cell fusion, primary screen, HeLa-JRFL effector, CEM21 target cells, luciferase | inhibition, % at 12.3 µM | 360,000 compounds, 1.1% hits | AID 651610, 2012;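 active = mean replicate inhibition score of at least 50 and every replicate individually at or above 50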;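 also: 0% = plate neutral controls and 100% = maraviroc near 300 nM; one replicate is shown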
PABP FP inh = PABP poly(A) RNA binding inhibitors, primary screen, biochemical, fluorescence polarization, uHTS. inhibition, % at 35 µM. 290,000 compounds, 1% hits;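 active = 50% or more with normal probe brightness, or confirmed in later tests; about a fifth of its hits are not listed in these tables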;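 also: calls also rest on retests at 20 µM and on dose response follow-up; controls were probe without protein and protein plus probe with vehicle; some compounds called inactive have numbers as strong as hits; many hits fall short of the cut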
Rce1 inh = yeast Rce1p protease inhibitors, primary screen, biochemical, fluorescence, cell-free homogeneous. CAAX prenyl protease 2 (Saccharomyces cerevisiae (strain ATCC 204508 / S288c)), Q03530. yeast membranes, quenched prenylated peptide cleavage fluorescence. calls only. 290,000 compounds, 0.27% hits. AID 2563, 2010;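 active = fall in fluorescence gain of 50% or more versus controls, with final raw signal at or below 3038400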;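 also: plate controls were neutral control wells for no effect and wells lacking membranes for full effect; tested at 10 µM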
Target sequence (Q03530 whole entry, looked up): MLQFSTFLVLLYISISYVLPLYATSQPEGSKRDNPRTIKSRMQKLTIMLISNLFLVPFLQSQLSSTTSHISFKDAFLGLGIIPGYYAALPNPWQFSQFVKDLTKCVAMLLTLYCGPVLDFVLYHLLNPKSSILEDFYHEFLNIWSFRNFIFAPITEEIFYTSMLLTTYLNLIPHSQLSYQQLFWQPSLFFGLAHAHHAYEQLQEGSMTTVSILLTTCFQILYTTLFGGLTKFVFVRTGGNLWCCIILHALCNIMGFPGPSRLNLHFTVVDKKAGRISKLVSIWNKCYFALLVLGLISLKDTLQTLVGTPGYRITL
eIF4H FP inh = human eIF4H binding inhibitors, primary screen, translation initiation inhibitor project, biochemical, uHTS, fluorescence polarization; 290,000 compounds, 0.94% hits; eIF4H fluorescence polarization binding assay; Eukaryotic translation initiation factor 4H (Homo sapiens), Q15056; inhibition, % at 35 µM;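 active = 50% or more with normal probe brightness, or confirmed in later tests; about a fifth of its hits are not listed in these tables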;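 also: calls also rest on retests at 20 µM and on dose response follow-up; 0% = protein and probe with vehicle and 100% = probe without protein; strong numbers were not always called active; many hits fall short of the cut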
MT1-MMP act inh = blockers of MT1-MMP proenzyme processing, primary screen, HT1080 RFP-PRO-GFP cells, GFP/RFP fluorescence; AID 651647, 2012; 360,000 compounds, 0.061% hits; GFP/RFP ratio change, % at 20 µM; GFP/RFP ratio fluorescence, overnight; percent of plate control window, DMSO zero; Matrix metalloproteinase-14 (Homo sapiens), P50281;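 active = GFP/RFP ratio change of at least 30% with cell ATP level not reduced by more than half and red fluorescence within 50% of control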; also: strong numbers were not always called active
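Assay system: HT1080 cells carrying an RFP-PRO-GFP reporter | Dosing: Single dose of 20 µM compound, 1% DMSO final | Incubation: Cells overnight before dosing, compound overnight, 37 °C, 5% CO2 | Evaluation: GFP/RFP fluorescence ratio | Control set: DMSO and RFP-L50D-GFP cell wells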
CSC inhib = cancer stem cell viability inhibitors, primary screen, luminescence | AID 2717, 2010 | cancer stem cell-like cells viability | 300,000 compounds, 1.1% hits | inhibition, % at 7.5 µM;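 active = mean at 75% or more and at least half the replicates too; tested in HMLE shEcad cells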;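 also: 0% = median of negative and 100% = median of positive control wells; the first replicate is given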
UUG fidelity = modulators of yeast start codon fidelity, primary screen, whole organism, S. cerevisiae, single point, plate reader | activity score, % at 18.7 µM | S. cerevisiae UUG-firefly luciferase reporter, luminescence/redox ratio | 350,000 compounds, 0.13% hits;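 active = replicate mean at a twofold rise or more, about +100% in these data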;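 also: firefly luciferase made from a UUG start codon reports start codon fidelity; reporter light over untreated wells divided by growth signal over untreated wells; some hits fall short of that in this replicate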
MT1-MMP act inh RFP = recorded beside MT1-MMP act inh, whose call it bears; RFP signal change, %; measured here: RFP expression control read;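 0 = vehicle wells; hits needed this value within 50% of zero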
* = called active by the depositor; i = inactive; nt = no result given.

SMILES	Env fusion inh	PABP FP inh	Rce1 inh	eIF4H FP inh	MT1-MMP act inh	MT1-MMP act inh RFP	CSC inhib	UUG fidelity
CCNC(=O)CC1C(=O)N(c2ccc(OC)cc2)C(=O)N1CCOC (centres undefined)	-10.4	-6.5	i	6.5	0.3	1.6	-6.3	-7.1
O=C(c1cc2c(s1)CCCC2)n1cccn1	nt	3.8	i	-8.3	1.7	2.5	-1.4	-20.4
CC1C(=O)CCC1(C(=O)O)c1ccccc1 (centres undefined)	nt	9.3	i	-2.9	5.0	4.4	nt	-16.8
Cc1cccn2c(=O)nc(SCC(=O)NCCc3ccccc3)nc12	-7.9	nt	i	nt	-3.4	4.5	0.3	nt
COc1cccc(N=C2CC(C)(C)CC(=O)/C2=C(/O)c2ccccc2)c1	-1.2	-0.4	i	8.9	-4.7	2.4	-0.7	-2.5
CCOC(=O)c1c(C)[nH]c(C(=O)CN2C(=O)NC(C)(c3ccc(C)cc3)C2=O)c1C (centres undefined)	-83.2	-3.7	i	-4.1	2.1	-2.3	-4.0	20.1
CCn1c(SCC(=O)NC2CCCC2)nnc1C(C)NC(=O)c1ccccc1F (centres undefined)	0.4	6.5	i	0.6	1.7	0.1	-2.0	-10.1
Cc1oc(/N=C/c2ccc(F)cc2)c(C#N)c1C	-9.7	6.1	i	26.3	-9.6	6.6	46.2	-1.7
CC(C)[C@H](CO)Nc1nc(NCc2ccc(S(N)(=O)=O)cc2)c2ncn(C(C)C)c2n1	43.7	14.5	i	20.4	-9.5	-9.7	-3.8	-12.3
CCCCSc1nnc(CCC)n1N	-2.0	-8.1	i	-4.6	4.6	5.0	2.9	-19.1
CN(CC(=O)Nc1cccc(F)c1)C(=O)Cc1n[nH]c(=O)c2ccccc12	3.9	nt	nt	nt	0.4	2.7	-3.9	nt
Cc1cc(NC(=O)c2ccc(Cl)cc2)cc(C)c1OCC(=O)N1CCOCC1	-24.9	6.5	i	5.6	-0.9	-2.4	3.7	-9.9
CCOc1cc(C(N)=O)cc(Br)c1OCc1ccccc1	-0.9	4.1	i	-1.0	2.3	0.3	5.8	-10.5
CCOC(=O)C1=C(CNCc2ccc(C)cc2)NC(=O)NC1c1ccc(OC)cc1 (centres undefined)	nt	-11.1	i	-6.7	-6.4	-4.1	-3.9	-3.4
O=S(=O)(c1ccc(Br)s1)N1CCN(CCOc2ccccc2)CC1	nt	nt	nt	nt	-0.2	-4.7	-13.5	-6.7

Overlap with the part before: three entries, followed by the next part.
SMILES	Env fusion inh	PABP FP inh	Rce1 inh	eIF4H FP inh	MT1-MMP act inh	MT1-MMP act inh RFP	CSC inhib	UUG fidelity
CCOc1cc(C(N)=O)cc(Br)c1OCc1ccccc1	-0.9	4.1	i	-1.0	2.3	0.3	5.8	-10.5
CCOC(=O)C1=C(CNCc2ccc(C)cc2)NC(=O)NC1c1ccc(OC)cc1 (centres undefined)	nt	-11.1	i	-6.7	-6.4	-4.1	-3.9	-3.4
O=S(=O)(c1ccc(Br)s1)N1CCN(CCOc2ccccc2)CC1	nt	nt	nt	nt	-0.2	-4.7	-13.5	-6.7
O=C1C=C(NCCN2CCOCC2)CC(c2ccccc2)C1 (centres undefined)	nt	-1.1	i	3.5	-0.4	-3.6	-3.2	-16.2
CCOc1ccc(NC(=S)C(C#N)=C2N(C)c3ccccc3N2C)cc1	8.3	-0.4	i	-0.3	0.1	4.9	-13.9	-31.4
CC(C)N=C(NC#N)SCC(=O)NC(C)(C)C	nt	2.9	i	-0.7	0.5	-2.9	7.6	-18.5
CCOC(=O)C1CCCN(Cc2cn(C)nc2-c2ccc3c(c2)OCCO3)C1 (centres undefined)	4.7	-6.2	i	-1.8	-1.6	3.4	-3.2	nt
CCSc1nnc(NC(=O)Cc2ccc(OC)cc2)s1	-35.6	3.0	nt	3.0	-0.4	2.3	nt	-5.3
COc1cccc(C(=O)N2CCN(Cc3ccccc3C(F)(F)F)CC2)c1	nt	18.8	i	3.2	-2.1	-2.6	0.5	-3.5
O=C(COC(=O)CCc1ccc(S(=O)(=O)N2CCOCC2)cc1)NCc1ccc(Cl)cc1	3.4	-0.3	i	2.0	-0.6	0.1	-6.0	10.9
Cc1ccc(S(=O)(=O)N2C[C@H]3n4c(=O)ccc(=O)n4C[C@H](OC(=O)NC4CC4)[C@@]3(O)C2)cc1	4.4	nt	nt	nt	-2.3	1.0	nt	-15.2
CC1CCCC(NC(=O)CNC(=S)N(Cc2ccccc2)Cc2cccs2)C1C (centres undefined)	30.1	2.1	i	1.0	-6.6	-10.1	53.1	nt
O=c1c(F)cn(C2CCCO2)c(=O)n1Cc1ccc(Cl)cc1 (centres undefined)	25.1	-7.2	nt	-3.5	2.3	2.5	-13.6	nt
Cc1cccc(C)c1NC(=O)CSc1nnc(-c2ccncc2)n1Cc1ccco1	nt	-5.1	i	-4.0	-3.8	1.3	14.4	nt
COc1cn(-c2ccccc2)nc1C(=O)Nc1ccc(C)cc1	-7.4	0.1	i	-18.2	-5.9	-2.4	7.4	-6.1
O=C(O)c1ccc(Nc2nc(-c3ccc([N+](=O)[O-])cc3)nc3ccccc23)cc1	-1.1	21.2	i	46.5	-4.8	-11.6	11.5	-3.9
COC(=O)c1c(NC(=O)C2CCCCC2C(=O)O)sc2c1CCCCC2 (centres undefined)	-42.9	6.3	i	5.4	3.1	-2.0	-6.8	nt
Cc1cc(C(O)c2ncc(-c3ccccc3C)[nH]2)ccc1F (centres undefined)	-17.8	nt	nt	nt	3.2	3.6	nt	-2.2
CCCCN1C(N)=NC[C@H]1Cc1ccc(O)cc1	-5.1	-1.8	i	1.0	1.1	2.0	-3.6	-23.9
Cc1[nH]c2ccccc2c1/C=N/NC(=O)CNC(=O)c1ccccc1	13.6	5.7	i	-5.2	1.2	-1.3	1.3	nt
Cc1ccc(NC(=O)C2CCN(S(=O)(=O)c3cccnc3)CC2)cc1C	0.7	-3.6	i	-1.0	-0.6	-4.7	-4.3	-9.5
CC1CCCCC1NC(=O)CN1CCC(NC(=O)c2cccc(F)c2)CC1 (centres undefined)	-0.2	0.0	i	-4.2	2.7	4.6	-2.9	25.9
O=C(Nc1cc(Cl)ccc1N1CCOCC1)C1=COCCO1	-8.3	nt	i	nt	-3.0	1.6	-6.2	-9.9
O=C(OCC(=O)N1CCOCC1)c1cc(S(=O)(=O)N2CCOCC2)c(Cl)cc1Cl	-6.6	nt	nt	nt	-3.6	0.2	nt	-17.5
COc1cc(C(=O)Nc2cccc(-c3nc4cc(C)ccc4o3)c2C)cc(OC)c1OC	nt	-0.9	i	-13.2	-1.5	1.6	58.4	-8.1
O=Nc1[nH]c(=O)c(/C=C(\O)c2ccccc2)nc1NO	-21.9	4.0	i	2.7	-1.4	2.7	12.3	-21.9
CCOc1ccc(C(=O)Nc2ccc3c(c2)OCCO3)cc1	-37.5	5.5	i	-7.4	2.4	-6.0	5.1	-47.6
COc1ccc(NC(=O)/C=C/c2ccc(F)cc2)cn1	-33.7	9.5	i	-2.5	6.2	0.1	-16.8	nt
O=c1ccc(-c2n[nH]c(=S)n2-c2ccc(F)c(Cl)c2)n[nH]1	-5.4	-4.2	i	-9.5	4.6	3.7	15.0	-21.7
CC1(C)C2CCC1(CS(=O)(=O)NCc1ccc(S(N)(=O)=O)cc1)C(=O)C2 (centres undefined)	-4.3	7.3	i	2.5	-0.3	2.0	-1.9	-8.9
Cc1cc(C)c(S(=O)(=O)NCCCN2CCOCC2)cc1Br	-27.1	7.0	i	-14.1	2.8	-1.2	28.2	-11.7
Cc1cccc(C(=O)c2ccccc2C(=O)O)c1	-3.2	-12.1	i	-3.0	-2.4	1.2	-12.8	-1.1
CCCCn1c(N)c(N(CCC(C)C)C(=O)c2ccccc2C)c(=O)[nH]c1=O	5.3	-7.9	i	-3.3	-1.4	-1.6	-7.6	7.0
COc1cc(F)ccc1-c1csc(C(O)c2ccccc2)n1 (centres undefined)	-1.5	nt	nt	nt	1.7	0.7	nt	2.2
CCCCN(CCCNC(=O)c1ccc(CS(=O)(=O)c2c(Cl)cccc2Cl)o1)Cc1ccccc1	11.9	-12.1	i	-4.7	-1.4	-0.5	-16.3	-2.2
O=C(CSc1nnc(NC(=O)Cc2ccccc2)s1)NCc1ccco1	17.5	-12.5	i	-2.5	-1.8	0.8	7.0	-16.9
CCCc1cc(=O)oc2cc(OC(C)C(=O)NCCCn3ccnc3)ccc12 (centres undefined)	3.0	-6.0	i	0.1	0.0	1.4	41.6	-5.4
CCn1c(NC)cc(=O)n(C)c1=O	-2.3	8.0	i	8.7	5.3	4.3	-2.8	14.9
O=C(N/N=C/c1ccc(F)cc1)c1cccc(NC(=O)c2ccccc2Cl)c1	10.0	5.9	nt	-17.7	4.0	4.5	-2.7	-15.5
CCc1ccc(CCC(=O)Nc2sc3c(c2C#N)CCCC3)o1	-258.3	1.0	i	7.6	2.8	-3.1	64.6	-13.2
Cc1cc(C(=O)N2CC(C)CC(C)C2)n(-c2ccccc2)n1 (centres undefined)	-46.6	-2.4	i	-5.9	-3.9	-2.0	-19.9	1.5
Cc1cc(NS(=O)(=O)c2ccc3c(c2)OCCO3)no1	11.3	-7.0	i	-1.6	4.1	0.3	-36.6	-4.5
Nn1c(SCC(=O)Nc2nccs2)nnc1-c1ccco1	-6.6	nt	nt	nt	-1.5	-0.4	nt	-9.7
Cc1ccc(NC(=O)CN2CCCC2c2cccs2)cc1S(=O)(=O)N1CCCCC1 (centres undefined)	nt	nt	nt	nt	-5.5	-25.6	31.3	-22.0
O=C(CCc1ccc(S(=O)(=O)N2CCOCC2)cc1)OCC(=O)c1ccc(Br)cc1	-1.8	nt	nt	nt	-3.4	0.4	7.2	-6.3
CCN(CC(=O)Nc1c(F)cccc1F)C(=O)c1csc2c1CCCC2	11.5	nt	nt	nt	-1.0	-0.6	1.7	30.6
COc1ccc(NC(=O)C(=O)NCCCn2ccnc2)cc1	-9.0	-3.4	i	9.4	0.1	-3.2	-2.7	nt
NC(=O)c1c(NC(=O)c2ccccc2)sc2c1CCCC2	-103.7	3.6	i	-0.5	-1.7	0.6	0.0	5.4

Quoted from the listing:
COc1cccc(C(=O)N2CCN(Cc3ccccc3C(F)(F)F)CC2)c1 in PABP FP inh shows 18.8
CCCCN(CCCNC(=O)c1ccc(CS(=O)(=O)c2c(Cl)cccc2Cl)o1)Cc1ccccc1 in CSC inhib shows -16.3
COc1ccc(NC(=O)/C=C/c2ccc(F)cc2)cn1 in eIF4H FP inh shows -2.5
CCCCSc1nnc(CCC)n1N in PABP FP inh shows -8.1
Cc1cccc(C(=O)c2ccccc2C(=O)O)c1 in Env fusion inh shows -3.2

(next part)
SMILES	Env fusion inh	PABP FP inh	Rce1 inh	eIF4H FP inh	MT1-MMP act inh	MT1-MMP act inh RFP	CSC inhib	UUG fidelity
Cc1cc(C(F)(F)F)c2c(N)c(C(=O)NC3CC3)sc2n1	9.1	11.2	i	-2.9	-5.3	-2.1	-0.5	-16.0
CSCCC(NC(=O)c1ccc([N+](=O)[O-])cc1Cl)C(=O)OC1CCCCC1=O (centres undefined)	-7.2	-8.0	i	-2.2	-0.4	4.3	-0.9	6.0
COc1cccc(C(=O)NC2CCN(CC(=O)Nc3ccccc3Cl)CC2)c1	16.6	-1.6	i	-2.4	2.2	-1.6	-8.3	1.6
CCCCC(=O)Nc1ccc(C(=O)NNC(=O)CCCOc2ccc(Cl)cc2Cl)cc1	2.0	38.4	i	-2.5	-1.1	8.2	-8.1	-6.3

Compound activity (PubChem BioAssay)

These rows are one share of the data (hit frequency here may not be typical).
